# Rce1 inh: yeast Ras-converting enzyme inhibition; Q03530; yeast membranes, quenched prenylated peptide cleavage fluorescence; calls only; hit rate 0.27% among 290,000;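 active = fall in fluorescence gain of 50% or more versus controls, with final raw signal at or below 3038400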;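 also: plate controls were neutral control wells for no effect and wells lacking membranes for full effect; tested at 10 µM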
# UUG fidelity: modulators of start codon recognition fidelity in yeast; S. cerevisiae UUG-firefly luciferase reporter, luminescence/redox ratio; activity score, % at 18.7 µM; hit rate 0.13% among 350,000;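 active = replicate mean at a twofold rise or more, about +100% in these data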;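 also: firefly luciferase made from a UUG start codon reports start codon fidelity; reporter light over untreated wells divided by growth signal over untreated wells; some hits fall short of that in this replicate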
# Env fusion inh: inhibitors of HIV Env-mediated cell fusion; inhibition, % at 12.3 µM; hit rate 1.1% among 360,000; HeLa-JRFL Env/CEM21 cell fusion, luciferase;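 active = mean replicate inhibition score of at least 50 and every replicate individually at or above 50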;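 also: 0% = plate neutral controls and 100% = maraviroc near 300 nM; one replicate is shown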
# CSC inhib: cancer stem cell inhibition | cancer stem cell-like cells viability, luminescence | hit rate 1.1% among 300,000 | AID 2717 | inhibition, % at 7.5 µM;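 active = mean at 75% or more and at least half the replicates too; tested in HMLE shEcad cells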;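 also: 0% = median of negative and 100% = median of positive control wells; the first replicate is given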
# MT1-MMP act inh: MT1-MMP (human) activation inhibition. AID 651647. HT1080 RFP-PRO-GFP cells, GFP/RFP ratio fluorescence, overnight; percent of plate control window, DMSO zero. hit rate 0.061% among 360,000. GFP/RFP ratio change, % at 20 µM;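 active = GFP/RFP ratio change of at least 30% with cell ATP level not reduced by more than half and red fluorescence within 50% of control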; also: strong numbers were not always called active
#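 Material: RFP-PRO-GFP reporter HT1080 cells. Dosing: single-point 20 µM compound, 1% DMSO. Controls: DMSO and RFP-L50D-GFP cell wells. Timing: cells overnight before dosing, compound overnight, 37 °C, 5% CO2. Measure: GFP/RFP fluorescence ratio.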
# PABP polyA inh: blocks human PABP binding to poly(A) RNA | P11940 | fluorescence polarization | inhibition, % at 35 µM | hit rate 1% among 290,000;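 active = 50% or more with normal probe brightness, or confirmed in later tests; about a fifth of its hits are not listed in these tables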;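 also: calls also rest on retests at 20 µM and on dose response follow-up; controls were probe without protein and protein plus probe with vehicle; some compounds called inactive have numbers as strong as hits; many hits fall short of the cut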
# Target sequence (P11940 whole entry, looked up): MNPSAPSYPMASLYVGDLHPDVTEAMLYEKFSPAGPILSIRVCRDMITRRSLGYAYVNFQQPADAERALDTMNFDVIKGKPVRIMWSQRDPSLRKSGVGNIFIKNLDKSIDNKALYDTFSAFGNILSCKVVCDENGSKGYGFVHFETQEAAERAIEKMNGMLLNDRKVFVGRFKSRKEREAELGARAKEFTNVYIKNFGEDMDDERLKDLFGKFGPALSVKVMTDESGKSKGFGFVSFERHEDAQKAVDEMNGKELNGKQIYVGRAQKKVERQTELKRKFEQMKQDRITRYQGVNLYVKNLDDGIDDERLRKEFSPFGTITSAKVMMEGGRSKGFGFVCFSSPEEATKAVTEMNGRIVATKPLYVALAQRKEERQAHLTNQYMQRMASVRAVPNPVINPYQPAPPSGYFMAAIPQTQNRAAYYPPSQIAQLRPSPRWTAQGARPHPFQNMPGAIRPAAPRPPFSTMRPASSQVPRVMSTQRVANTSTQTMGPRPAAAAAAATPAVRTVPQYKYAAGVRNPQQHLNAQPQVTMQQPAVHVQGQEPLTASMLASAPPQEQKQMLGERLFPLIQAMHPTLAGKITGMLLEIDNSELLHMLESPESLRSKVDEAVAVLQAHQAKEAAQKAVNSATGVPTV
# eIF4H inh: inhibitors of RNA binding by human eIF4H; eIF4H fluorescence polarization binding assay; inhibition, % at 35 µM; AID 2012; hit rate 0.94% among 290,000; Q15056;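 active = 50% or more with normal probe brightness, or confirmed in later tests; about a fifth of its hits are not listed in these tables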;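 also: calls also rest on retests at 20 µM and on dose response follow-up; 0% = protein and probe with vehicle and 100% = probe without protein; strong numbers were not always called active; many hits fall short of the cut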
# eIF4H inh retest: recorded beside eIF4H inh, whose call it bears; inhibition, %; compound at 20 µM; confirmation average;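 mean of two retest wells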
# PABP polyA inh retest: second read-out of PABP polyA inh, no call of its own (marks repeat the call); inhibition, %; compound at 20 µM; confirmation repeats;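 mean of two retest wells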
# MT1-MMP act inh RFP: recorded beside MT1-MMP act inh, whose call it bears; RFP signal change, %; measured here: RFP expression control read;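 0 = vehicle wells; hits needed this value within 50% of zero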
# The depositor's hits bear a star; i = inactive; · = not tested or not shown.
SMILES,Rce1 inh,UUG fidelity,Env fusion inh,CSC inhib,MT1-MMP act inh,MT1-MMP act inh RFP,PABP polyA inh,eIF4H inh,others
Cc1ccc(NC(=O)Cn2c(=O)oc3cc(S(=O)(=O)N4CCC(C)CC4)ccc32)cc1C,i,-5,44,-1,-7,-27,-1,2,
COc1ccc(CN2CCNC(=O)C2CC(=O)N(C)Cc2cc(C)no2)cc1OC (stereo not drawn),i,-3,-30,-10,2,10,-3,-4,
CC(=O)c1c(C)nc(-c2ccccc2)n1O,i,-4,-81,-10,2,3,7,-10,
COc1ccnc(Oc2ccccc2)c1C(=O)N/C=N/OCc1ccccc1,·,·,6,·,5,3,26,-5,
COc1ccc(S(=O)(=O)NCC2CCCN(C(=O)c3sccc3C)C2)cc1 (stereo not drawn),i,·,-5,-10,1,3,2,7,
CCC1CCCCN1C(=O)CNCC1CCCO1 (stereo not drawn),i,·,5,-5,1,1,19,2,
CN(C)N=Nc1nc2c(c(=O)n(C)c(=O)n2C)n1C,i,-1,-4,-8,1,0,3,9,
COc1ccccc1N(CC(=O)NCc1ccccc1)C(=O)CCC(=O)Nc1cc(C)ccn1,i,3,-4,3,5,3,6,-7,
Cc1cc(S(=O)(=O)Nc2ccc(C(=O)NCC3(N(C)C)CCCCC3)cc2)ccc1F,i,1,-33,19,3,0,·,·,
O=C(NC1CC1)C1=C[C@H](C2CCCCC2)C[C@H](OCc2ccc(CO)cc2)O1,i,-29,20,-10,1,1,3,4,
CCOC(=O)C1(Cc2cccc(Cl)c2)CCCN(C(=O)CCC(=O)N(C)C)C1 (stereo not drawn),i,·,-4,-6,-3,-8,1,-1,
Cc1ccc(NC(=O)CSc2nnc(-c3ccccc3Br)o2)cc1C,i,-14,·,9,2,-2,-5,1,
O=C(NCc1ccc2c(c1)OCO2)Nc1ccc([N+](=O)[O-])cc1,i,-3,24,11,1,-9,1,2,
COc1ccc(C(=O)NCCS(=O)(=O)N2CCN(C(=O)c3ccco3)CC2)cc1,i,7,-16,·,-1,4,·,·,
CCOC(=O)CCc1c(C)nc2ncnn2c1C,i,-12,1,-7,3,3,6,-14,
CC(C)c1ccc(NC(=O)CSC(C)c2nc3ccccc3c(=O)[nH]2)cc1 (stereo not drawn),i,-25,39,-3,1,-1,-4,-4,
Cc1ccccc1OCCn1cc(C(=S)N2CCN(C)CC2)c2ccccc21,i,·,17,-15,-6,-5,2,6,
OCCNc1nc(Nc2cc(Cl)ccc2OC2CCCC2)nc(N2CCCC2)n1,i,3,-21,60,4,-3,·,·,
CCOC(=O)c1[nH]cnc1C(=O)N[C@@H](C)c1ccccc1,·,-8,1,-16,5,5,·,·,
CC(C)c1ccc(NC(=O)Nc2nc(C(N)c3ccccc3Cl)cs2)cc1 (stereo not drawn),·,0,52,·,-11,-17,·,·,
CCN(CC)CC(=O)NCc1cc(-c2ccc(OC)cc2)no1,i,-15,·,7,1,4,-1,-6,
O=C(NCC1CC1)c1onc(CSc2nc3ccccc3[nH]2)c1C(=O)NCC1CC1,i,-19,32,3,-6,-5,8,-6,
COc1ccc2[nH]cc(C(=O)CNc3nc(C)cs3)c2c1,i,3,-144,5,7,-1,4,-8,
CCC(Oc1ccccc1)C(=O)NCCCN1CCOCC1 (stereo not drawn),i,-11,1,-3,-1,8,-4,0,
NC(c1csc(Nc2nncc3ccccc23)n1)c1ccccc1Cl (stereo not drawn),·,-15,-6,·,-6,-5,·,·,

# Additional structures.
SMILES,Rce1 inh,UUG fidelity,Env fusion inh,CSC inhib,MT1-MMP act inh,MT1-MMP act inh RFP,PABP polyA inh,eIF4H inh,others
CCOC(=O)c1ccc(N2C(=O)CC(SCC(N)C(=O)OCC)C2=O)cc1 (stereo not drawn),i,-17,12,4,-9,-8,18,3,
Cc1cc(C)nc(NS(=O)(=O)c2ccc(NC(=O)CCC3COc4ccccc4O3)cc2)n1 (stereo not drawn),i,6,·,-13,-3,-4,4,-6,
CC(=O)c1ccc(NC(=O)C2CC(=O)N(Cc3ccccc3)C2)cc1 (stereo not drawn),i,-3,-80,8,4,0,-2,2,
Cc1nc(N)sc1-c1csc(N(C)c2ccc(O)cc2)n1,i,-20,·,7,-1,3,70*,92*,
CCn1nnc2cc(C(=O)Nc3cc(OC)cc(OC)c3)ccc21,i,4,-7,·,3,1,·,·,
CCOCCOC(=O)COc1ccc(N2C(=O)c3ccccc3C2=O)cc1,i,·,·,·,·,·,11,-8,
CCN(CC)C(=O)C1=C(C)N(Cc2ccccc2)C(=O)C(CC(=O)NCC2CCCCC2)C1 (stereo not drawn),·,-5,-54,·,2,3,·,·,
CSc1ncccc1C(=O)NC1CC(C)(C)Cc2c1cnn2-c1ccccc1C (stereo not drawn),i,-12,-2,-2,0,2,-8,-11,
COc1ccc(N(CC(=O)N2CCc3ccccc3C2)S(C)(=O)=O)cc1Cl,i,-6,3,-2,-3,-1,36,-6,
Cc1sc2ncnc(N3CCCCC3C)c2c1C (stereo not drawn),i,-15,3,7,1,-13,-2,-8,
CC(C)c1ccc(NC(=O)c2ccc3c(c2)C(=O)N(Cc2cccnc2)C3=O)cc1,i,-18,2,-4,2,-12,3,20,
Cn1c(N)c(S(=O)(=O)N2CCCC2)c(=O)n(C)c1=O,i,0,-11,-18,-1,3,3,-3,
O=C(NNc1nc(-c2ccccc2)cs1)c1ccc(F)cc1,i,-17,6,23,2,6,2,2,
Cn1c(SCc2ccc(C(C)(C)C)cc2)nnc1C1COc2ccccc2O1 (stereo not drawn),i,-5,35,28,0,-1,5,-6,
COc1ccc(/C=C2\CCCC(C(=O)C(F)(F)F)=C2O)cc1,i,-13,-46,3,0,-7,-5,0,
COC(=O)CCCC1=CC2=CC(=O)C(C)(OC(=O)c3cccs3)C(=O)C2=CN1CCc1ccccn1 (stereo not drawn),i,13,-14,4,9,8,46*,73,eIF4H inh retest=37;PABP polyA inh retest=71*
COc1ccc(C(=O)C2CCN(C(=S)Nc3ccc(F)cc3)CC2)cc1,·,·,2,13,-3,-6,-15,-1,
COc1ccccc1NC(=O)C(C)OC(=O)C1CC(=O)N(c2ccc3c(c2)OCCO3)C1 (stereo not drawn),i,0,·,-10,-5,2,6,-14,
COCCNC(=O)CCC(=O)NNc1nc2ccccc2c2nc(C)nn12,i,·,-13,2,4,5,-7,-7,
O=S(=O)(NCc1csc(-c2cccnc2)n1)c1cccs1,i,-3,20,-9,-2,3,4,-5,
Cc1cc([N+](=O)[O-])ccc1N=Nc1c(N)[nH]n(-c2ccccc2)c1=O,i,·,-10,-14,1,2,0,4,
COc1cc([N+](=O)[O-])ccc1NC(=S)Nc1cccc(C(=O)O)c1,i,10,·,·,-1,1,3,2,
NC(=O)C1CCN(C(=O)CN(C2CCCCC2)S(=O)(=O)c2ccc(F)cc2)CC1,i,12,-4,-7,4,7,-2,2,
COc1ccc(-c2cc(C(=O)N3CCCC3)no2)cc1,i,-57,-9,16,-5,-1,-1,5,
CNC(=O)C1=C(C)NC(=S)NC1c1cccs1 (stereo not drawn),i,-20,16,-1,-4,-1,-4,-5,

# New compounds follow:
SMILES,Rce1 inh,UUG fidelity,Env fusion inh,CSC inhib,MT1-MMP act inh,MT1-MMP act inh RFP,PABP polyA inh,eIF4H inh,others
Cc1csc2c(C#N)c(=O)c3c(n12)CCC3,i,-21,·,·,5,4,-5,-4,
COC(=O)c1cc2c(C(F)(F)F)nn(C)c2s1,i,-12,-9,-10,1,4,-3,-5,
CC(CNC(=O)CCC(=O)N1CCOc2ccccc21)c1ccccc1 (stereo not drawn),i,14,-32,-2,0,-2,-4,-8,
N=c1n(CCN2CCOCC2)c2ccccc2n1CC(=O)c1ccc(Cl)c(Cl)c1,i,·,-93,18,-8,-9,-3,3,
COc1ccc(C(C(=O)NC2CCCCC2)N(C(=O)c2ccco2)c2ccccc2C(C)=O)cc1 (stereo not drawn),i,6,10,16,-4,-3,5,-1,
CCc1cccc(CC)c1N(COC)C(=O)Cn1cnc2ccccc21,i,-4,7,-6,3,0,-14,-12,
NC(=O)CN(C/C=C/c1ccccc1)C/C=C/c1ccccc1,i,-14,-24,5,-2,0,-7,0,
Cc1ccc(S(=O)(=O)N2[C@@H](c3ccc4c(c3)OCO4)C(C(=O)O)=C[C@H]2C(C)(C)C)cc1,·,-18,-1,·,2,5,·,·,
COc1ccc(-c2nnc(SC(C)C(=O)Nc3ccc4c(c3)OCCO4)o2)cc1 (stereo not drawn),i,-13,·,15,-2,4,16,0,
O=C(NCc1ccco1)C1CC(c2ccc(Cl)c(Cl)c2)=NO1 (stereo not drawn),i,·,2,-12,2,4,4,-2,
CN(CC(=O)Nc1ccc(F)c(F)c1F)C(=O)c1ccc(N2CCCC2=O)cc1,·,1,28,-8,3,5,·,·,
Cc1cc(C)c2c(N)c(S(=O)(=O)c3ccccc3)sc2n1,i,-3,12,25,-14,-10,20,-2,
CCC(=O)Nc1cccc(NC(=O)c2cccc([N+](=O)[O-])c2)c1,i,·,·,·,5,2,-2,2,
COc1ccc(CCNC(=O)[C@@H]2C[C@H]2c2ccccc2)cc1OC,i,·,-40,-1,3,-2,-3,4,
COc1ccc(C2C(C#N)=C(N)OC3=C2C(=O)CCC3)cc1OC (stereo not drawn),i,·,11,-10,2,11,-14,2,
O=S(=O)(Cc1ccco1)Cc1nc(-c2ccc(Cl)cc2)cs1,i,-9,7,-15,-4,-2,0,4,
Cc1cc(=O)c2cc(C(=O)c3ccccc3)ccc2[nH]1,i,-12,-6,-13,5,4,18,5,
c1ccc(C2(CNc3ccccn3)CCCC2)cc1,i,·,·,6,3,-8,0,-3,
Cc1nc(NC(=O)C2CC2)sc1C(=O)Nc1ccccc1Cl,i,5,-60,1,-1,-4,12,3,
CC1CCCC(C)N1CC(C)(C)NS(=O)(=O)c1ccc(Cl)cc1 (stereo not drawn),i,-9,1,-1,3,1,15,-2,
O=C(NCc1ccccc1Cl)c1csc(COCCO)n1,·,-13,-14,·,0,2,·,·,
Cc1c(Cl)cn2c(=O)cc(CN3CCN(c4ccc(F)cc4)CC3)nc2c1Cl,·,·,·,9,·,·,-15,15,
O=C(CNC(=S)NC(=O)c1ccccc1)c1ccccc1,i,·,-6,0,6,5,-4,-9,
O=C(Nc1ccc(Oc2ccccc2)cc1)c1csc(COCCO)n1,·,-9,45,·,1,-29,·,·,
COc1ccc(C(=O)Nc2ccc(C(=O)NCCc3ccc(OC)c(OC)c3)cc2)cc1,i,-8,3,-8,-3,-2,6,-4,
CCOc1ccccc1N1C(=O)c2ccc(C(=O)O)cc2C1=O,i,-6,·,-2,4,7,16,-2,
COc1cccc(S(=O)(=O)Nc2cccc(C(=O)N3CCOCC3)c2)c1,i,-11,-18,·,1,3,-17,-5,

# Some of these compounds in order of number of heavy atoms, descending.
SMILES,Rce1 inh,UUG fidelity,Env fusion inh,CSC inhib,MT1-MMP act inh,MT1-MMP act inh RFP,PABP polyA inh,eIF4H inh,others
Cc1ccc(S(=O)(=O)N2[C@@H](c3ccc4c(c3)OCO4)C(C(=O)O)=C[C@H]2C(C)(C)C)cc1,·,-18,-1,·,2,5,·,·,
CC(CNC(=O)CCC(=O)N1CCOc2ccccc21)c1ccccc1 (stereo not drawn),i,14,-32,-2,0,-2,-4,-8,
O=S(=O)(Cc1ccco1)Cc1nc(-c2ccc(Cl)cc2)cs1,i,-9,7,-15,-4,-2,0,4,
O=C(CNC(=S)NC(=O)c1ccccc1)c1ccccc1,i,·,-6,0,6,5,-4,-9,
Cc1cc(=O)c2cc(C(=O)c3ccccc3)ccc2[nH]1,i,-12,-6,-13,5,4,18,5,
COC(=O)c1cc2c(C(F)(F)F)nn(C)c2s1,i,-12,-9,-10,1,4,-3,-5,

# The list is partial; count on the stated rates, not on these rows.
